High-throughput results (PubChem)
MLL AF4-AF9 inh – inhibitors of AF4 peptide binding to AF9, primary screen, biochemical, AlphaScreen, biotin-AF4 peptide, FLAG-AF9, single point; AID 651704, 2012; Protein AF-9 (Homo sapiens), P42568; inhibition, % at 10 µM; 350,000 compounds, 0.47% hits;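 active = every replicate reaching a set inhibition limit, whatever the replicate mean, cut at about 25% in these data; inconclusive = mean inhibition reaches that limit but some replicates miss it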;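 also: 0% = plate neutral control median and 100% = total signal loss; the record names both 10 and 1 µM as test concentration; the first replicate is given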
Target sequence (P42568 whole entry, looked up): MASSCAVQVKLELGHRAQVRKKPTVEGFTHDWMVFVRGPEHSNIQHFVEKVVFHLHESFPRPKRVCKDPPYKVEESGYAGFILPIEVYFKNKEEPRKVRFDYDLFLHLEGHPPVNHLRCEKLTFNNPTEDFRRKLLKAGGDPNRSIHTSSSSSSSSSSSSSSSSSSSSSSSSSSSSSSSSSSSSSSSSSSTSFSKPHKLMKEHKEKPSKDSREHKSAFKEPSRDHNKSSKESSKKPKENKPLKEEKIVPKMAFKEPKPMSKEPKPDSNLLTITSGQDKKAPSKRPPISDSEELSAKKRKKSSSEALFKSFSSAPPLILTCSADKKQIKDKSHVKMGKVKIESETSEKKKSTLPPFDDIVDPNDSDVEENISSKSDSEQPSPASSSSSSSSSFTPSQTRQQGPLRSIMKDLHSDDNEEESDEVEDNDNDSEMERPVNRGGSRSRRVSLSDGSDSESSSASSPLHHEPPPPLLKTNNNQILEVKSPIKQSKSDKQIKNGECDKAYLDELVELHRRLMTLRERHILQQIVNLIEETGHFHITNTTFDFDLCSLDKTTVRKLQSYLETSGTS
Bfl-1 A1 inh – caspase 3/7 activation in MEF A1-2A-BIM cells, primary screen, A1 inhibitor project, cell-based, luminescence, HTS; caspase activation, % (concentration not given with the values); AID 2462, 2010; Caspase-Glo 3/7 luminescence, 3 h; percent of clofoctol response, vehicle zero; 330,000 compounds, 0.066% hits;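 active = over half of replicate activation scores above 10%, or exactly half above 10 with the replicate mean above 10; inconclusive = replicate mean below 10 yet half the replicates above 10; inactive = over half of replicates below 10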;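 also: wells of about 30 µL received 50 nL stock; many hits fall short of the cut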
Ecoli rRNA inh – reduced GFP signal of wild-type E. coli, primary screen, bacterial rRNA inhibitor project, GFP/RFP fluorescence, OD600, single point; E. coli WT GFP vs humanized-ribosome RFP mutants, 24 h; hits give low values; DMSO median 0, no signal -100; 350,000 compounds, 1.6% hits; AID 720706, 2013; GFP signal change (wild-type ribosome), % (test concentration not listed);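 active = significant combined selectivity score with lowered wild-type GFP, culture density cut under 30%, mutant RFP and density less affected; inactive = any of these conditions unmet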; also: one replicate is shown; some compounds called inactive have numbers as strong as hits
Calb FLC – C. albicans growth inhibition with fluconazole, primary screen, CaCi-2 strain, Alamar Blue fluorescence. C. albicans CaCi-2 (fluconazole-resistant clinical isolate) + fluconazole, 48 h. growth inhibition, % (no concentration beside the values). 300,000 compounds, 0.57% hits. AID 1979, 2009;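 active = most replicates above 75%; inconclusive = exactly half above 75%; inactive = most below 75%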;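 also: all wells also contain fluconazole at 8 µg/ml as a sub-toxic cotreatment; 0% = median of DMSO wells and 100% = median of geldanamycin control wells; wells of about 8 µL received 7.5 nL stock; the first replicate is given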
RanGTP-Impb inh – inhibitors of RanGTP-importin-beta interaction, primary screen, biochemical, FRET, CFP-Ran, YFP-importin-beta, homogeneous; Ran GTPase (GTP-bound) - importin-beta complex; cell-free CFP-Ran/YFP-importin-beta FRET ratio; inhibition, % (no concentration beside the values); 300,000 compounds, 1.1% hits; AID 2216, 2009;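 active = most replicates above 15%; inconclusive = exactly half above 15%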;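 also: 0% = DMSO wells and 100% = Ran loaded with GDP instead of GTP; wells of about 40 µL received 100 nL stock; the first replicate is given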
T cruzi repl – inhibitors of intracellular T. cruzi growth, primary screen, luminescence, NIH3T3 host cells | T. cruzi beta-gal in NIH3T3, 90 h | inhibition, % (concentration not given with the values) | 300,000 compounds, 1.4% hits | AID 1885, 2009;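 active = mean inhibition across valid replicates above about 55%, limit read from the data; inconclusive = mean below that limit but half or more replicates reach it; inactive = mean below it, under half of replicates reach it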;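 also: signal also drops with host cell toxicity which is not excluded here; 0% = plate median of DMSO wells and 100% = zero luminescence signal; higher percent means less beta-gal luminescence so fewer parasites; stock transfer was 50 nL into about 50 µL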
Vif A3G – inhibitors of Vif binding to APOBEC3G peptide, primary screen, biochemical, TR-FRET, GST-Vif 1-94, biotin-A3G peptide, dose response retest (AID 1117319) | Virion infectivity factor (Human immunodeficiency virus type 1 group M subtype B (isolate … | TR-FRET GST-Vif / biotin-A3G peptide binding; higher % means a stronger effect; test concentration not given here; strong numbers were not always called active | inhibition, %, or IC50 in µM where a hit was titrated | 260,000 compounds, 0.57% hits;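 active = above the screen mean plus three standard deviations and confirmed in dose response; inconclusive = results disagree or hit not tested in dose response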;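 also: Vif residues 1-94 fused to GST binding biotinylated APOBEC3G peptide 110-148; 0% = full assay without inhibitor and 100% = GST in place of GST-Vif; retest series ran down from 100 µM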
Beta cell apopt – inhibitors of cytokine-induced beta cell apoptosis, primary screen, luminescence. 300,000 compounds, 0.8% hits. protection from apoptosis, % (test concentration not listed). INS-1E cytokine-induced death, ATP luminescence, 48 h; percent of positive-control rescue, neutral wells zero. AID 435005, 2010;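 active = all replicates at 75% or more, or half of them and the mean; inconclusive = half reach 75% but not the mean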;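 also: 0% = cytokine-treated negative control wells and 100% = positive control rescue; higher means more ATP so stronger rescue from cytokine killing; wells of about 40 µL received 100 nL stock; the first replicate is given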
Ecoli rRNA inh OD600 – also measured in Ecoli rRNA inh; calls as there; OD600 change, %; measured here: OD600 growth;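 optical density of the mix in the first replicate; 0 = DMSO median and -100 = no signal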
Ecoli rRNA inh RFP – second read-out of Ecoli rRNA inh, no call of its own (marks repeat the call); RFP signal change, %; measured here: RFP humanized mutant strains;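 first replicate; 0 = DMSO median and -100 = no signal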
Starred values were filed as active, the others as inactive; ? = inconclusive; . = no result given.

SMILES	T cruzi repl	Bfl-1 A1 inh	Beta cell apopt	MLL AF4-AF9 inh	Vif A3G	Ecoli rRNA inh OD600	Calb FLC	Ecoli rRNA inh	Ecoli rRNA inh RFP	RanGTP-Impb inh
O=C(NCc1ccccc1)c1nncc(-c2ccccc2)n1	.	0.8	-22	-0.8	.	-1	.	1	-7.8	.
CCN(C(=O)c1ccc(N2CC3CC(C2)c2cccc(=O)n2C3)c(NC(=O)c2ccncc2)c1)c1cccc(C)c1 (stereo not given)	-10	0.2	4	-2.4	23%	9	22	5	0.0	-5.8
O=C(O)CSCC(=O)Nc1ccccc1	-1	-0.1	-2	3.3	-10%	18	?	15	-5.4	4.9
Cc1ccc(NC(=O)C2CC(=O)N(C(C)C)C2)cc1Cl (stereo not given)	-8	-0.1	7	-1.3	.	13	12	3	12	1.3
O=C(C[n+]1cc(-c2ccc(Cl)cc2)n2c1CCC2)Nc1nc(-c2ccc(F)cc2)cs1	1	0.3	6	-0.9	-3%	7	25	2	5.8	6.7
COc1ccc(/C=N/NC(=O)C2C3CCCCC32)cc1OC (stereo not given)	0	-0.5	-4	-1.3	-2%	7	18	6	2.0	.
Fc1ccc(N2Cc3ccsc3C=N2)cc1	-23	-0.8	-2	0.8	.	-3	4	1	-0.2	0.2
O=C(C1=C[C@H](c2ccc(C(F)(F)F)cc2)C[C@H](OCCCCO)O1)N1CCOCC1	6	0.6	-6	-5.8	?	4	1	8	12	0.6
COc1ccc(CNC(=O)COC(=O)c2n[nH]c3ccccc23)cc1	3	-0.8	-16	.	-2%	.	0	.	.	0.5
COc1ccc(C(=O)NNC(=O)Cc2ccc([N+](=O)[O-])cc2)cc1	-14	0.6	-7	.	.	.	3	.	.	-2.4
Cc1cccc(OCCCCCN2CCOCC2)c1	-15	0.6	-8	-3.5	-2%	4	-27	8	-4.3	1.0
COc1cc2c3nnc(-c4ccc(F)cc4)c-3cn(Cc3ccccc3)c2cc1OC	6	-0.1	40	1.8	-28%	31	-5	18	3.5	-183
CCC1=Nc2cc(C(=O)NCCCN3CCN(C)CC3)ccc2Sc2ccccc21	14	0.6	-3	13	.	-2	4	3	0.8	-1.0
Cc1cc(C(N)=O)c2ccccc2n1	-17	?	-1	.	-1%	.	-23	.	.	-7.2
CCN(CC)C(=O)CSc1nnc(-c2ccco2)n1N	-6	0.7	-4	.	9%	.	-2	.	.	3.3
CCc1[nH]nc(C(=O)N2CCCC(CNS(=O)(=O)c3cccs3)C2)c1C (stereo not given)	-7	1.1	-1	-2.6	11%	11	-3	12	4.7	-4.9
O=C(/C(=N\Nc1ccc([N+](=O)[O-])cc1)Sc1nnnn1-c1ccccc1)c1ccccc1	16	0.7	17	.	.	.	-34	.	.	?
CCOc1ccc2nc(-c3ccc(OC)c(OC)c3)cc(C(=O)O)c2c1	-11	-2.2	0	.	-3%	-3	14	-4	1.3	-3.0
C/C(=N\NC(=O)c1ccc2c(c1)OCO2)c1cccnc1	-17	0.2	-6	-0.6	-4%	16	-5	15	0.3	5.7
COc1cc(C)ccc1S(=O)(=O)NC1CC(C)(C)NC(C)(C)C1	-1	0.3	-6	-1.0	3%	12	14	22	3.6	3.2
O=C(CCCc1ccccc1)Nc1cccc([N+](=O)[O-])c1	7	0.1	-4	7.3	.	-10	-11	4	4.2	2.0
Nc1c(C(=O)c2ccccc2)sc(Nc2ccccc2)c1S(=O)(=O)c1ccccc1	55*	0.5	13	.	-3%	.	6	.	.	7.1
CC(C)(C)c1nnc(NC(=O)NS(=O)(=O)c2ccccc2)s1	-7	0.6	-7	.	-12%	.	4	.	.	1.3
CCOC(=O)c1c(C)n(CC(O)CN(C)C)c2cc(Br)c(OC)cc12 (stereo not given)	79*	-0.5	2	4.1	13%	8	-11	12	3.4	6.1
CCCn1c(N)c(N(CCOC)C(=O)c2cc3ccccc3cc2OC)c(=O)[nH]c1=O	.	-0.9	-6	-0.2	5%	10	.	2	-2.5	.
COc1ccc(NC(=O)CSC(C)c2nc3ccccc3c(=O)[nH]2)cc1 (stereo not given)	0	0.1	2	-3.0	.	13	0	0	5.1	4.4
Cc1ccccc1C(=O)NC1CCN(CC(=O)N2CCCCC2C)CC1 (stereo not given)	1	-0.2	3	-3.3	.	11	1	5	-2.6	-4.3
COc1ccc(Cc2nc3ccc(C(=O)N4CCCC4)cc3o2)cc1	-6	0.7	-1	0.7	.	0	-1	8	0.9	1.0
COC(=O)c1sccc1NC(=O)c1csc(C)c1	2	0.4	1	.	-2%	.	-12	.	.	19*
CN(CC(=O)Nc1ccc(Cl)c(Cl)c1)CC(=O)Nc1ccc2c(c1)OCO2	.	0.9	1	0.2	5%	.	.	.	.	.

Of the compounds above, 7 contain a halogen:
SMILES	T cruzi repl	Bfl-1 A1 inh	Beta cell apopt	MLL AF4-AF9 inh	Vif A3G	Ecoli rRNA inh OD600	Calb FLC	Ecoli rRNA inh	Ecoli rRNA inh RFP	RanGTP-Impb inh
Cc1ccc(NC(=O)C2CC(=O)N(C(C)C)C2)cc1Cl (stereo not given)	-8	-0.1	7	-1.3	.	13	12	3	12	1.3
O=C(C[n+]1cc(-c2ccc(Cl)cc2)n2c1CCC2)Nc1nc(-c2ccc(F)cc2)cs1	1	0.3	6	-0.9	-3%	7	25	2	5.8	6.7
Fc1ccc(N2Cc3ccsc3C=N2)cc1	-23	-0.8	-2	0.8	.	-3	4	1	-0.2	0.2
O=C(C1=C[C@H](c2ccc(C(F)(F)F)cc2)C[C@H](OCCCCO)O1)N1CCOCC1	6	0.6	-6	-5.8	?	4	1	8	12	0.6
COc1cc2c3nnc(-c4ccc(F)cc4)c-3cn(Cc3ccccc3)c2cc1OC	6	-0.1	40	1.8	-28%	31	-5	18	3.5	-183
CCOC(=O)c1c(C)n(CC(O)CN(C)C)c2cc(Br)c(OC)cc12 (stereo not given)	79*	-0.5	2	4.1	13%	8	-11	12	3.4	6.1
CN(CC(=O)Nc1ccc(Cl)c(Cl)c1)CC(=O)Nc1ccc2c(c1)OCO2	.	0.9	1	0.2	5%	.	.	.	.	.

Later entries.
SMILES	T cruzi repl	Bfl-1 A1 inh	Beta cell apopt	MLL AF4-AF9 inh	Vif A3G	Ecoli rRNA inh OD600	Calb FLC	Ecoli rRNA inh	Ecoli rRNA inh RFP	RanGTP-Impb inh
CCCCOc1ccc(C(=O)NCC(=O)NCC(=O)OCC)cc1	-16	-0.1	5	.	77µM*	.	-8	.	.	4.5
Cc1ccc(S(=O)(=O)Nc2ccc3c(c2)nc(CCN2CCN(c4ccccn4)CC2)n3C)cc1	29	0.3	2	3.5	-2%	-25	-1	-12	-0.2	1.3
O=c1cc(NC2CCCCCC2)[nH]c(=O)[nH]1	-14	-1.4	-4	.	-8%	.	-3	.	.	6.6
NC(=O)C1CCN(c2cc(N3CCOCC3)ccc2[N+](=O)[O-])CC1	-7	1.7	-6	-0.1	.	10	23	10	-3.4	-9.7
COc1ccc(C(O)c2ncc(C(F)(F)F)cc2Cl)cc1 (stereo not given)	-10	0.8	7	-1.0	-10%	15	-4	5	2.2	1.0
COC(=O)C1CCN(C(=O)COC(=O)c2ccc(N3CCCC3=O)cc2)CC1	.	0.5	-4	-6.8	.	9	.	1	-2.6	.
CCC(C)[C@H](NC(=O)N1CCCCC1)C(=O)OC (stereo not given in full)	-10	-0.9	-3	-1.8	1%	.	-19	.	.	23*
C=CCn1c(SCC(=O)Nc2nccs2)nnc1-c1ccco1	-24	0.7	1	.	28%	.	-6	.	.	3.6
Cc1ccc(C(=O)c2c3ccc([N+](=O)[O-])cc3[n+]([O-])n2CCC(N)=O)cc1	38	-0.7	30	-57	.	3	27	1	-5.3	-1.5
Cc1ccc(NC(=O)CSCC#N)cc1	-14	-0.4	-4	.	-1%	.	-8	.	.	?
O=C1c2ccncc2C(=O)N1c1cccc(Cl)c1	-25	0.1	2	-0.3	.	22	-9	8	3.1	0.9
C=C(C)c1cccc(C(C)(C)NC(=O)NCC2CCCO2)c1 (stereo not given)	12	-0.2	-2	.	1%	.	-2	.	.	0.8
COC(=O)C1=C(C)NC2=C(C(=O)CC(C)(C)C2)C1c1cn(Cc2ccc(Br)cc2)nc1-c1ccccc1 (stereo not given)	18	-0.5	.	.	-3%	.	-1	.	.	-0.8
CC(NC(=O)C1CCN(S(=O)(=O)c2cc([N+](=O)[O-])ccc2Cl)CC1)c1ccccc1 (stereo not given)	-18	0.2	0	-2.7	15%	15	1	12	0.5	7.5
CCC(C(=O)N1CCN(C(=O)c2ccco2)CC1)c1ccccc1 (stereo not given)	-3	0.2	1	.	2%	.	11	.	.	0.7
C[C@H]1CCC[C@]2(CC(=O)c3cc(F)ccc3O2)C1	-10	-0.3	6	-0.4	.	4	0	3	-0.1	-0.1
O=C1NC2=C(C(=O)CCC2)C(c2ccc([N+](=O)[O-])cc2)N1 (stereo not given)	-4	0.1	9	2.2	.	11	3	5	-0.9	-1.7
Cc1cnc(C(=O)OCC(=O)c2ccc(C)s2)cn1	.	0.9	-3	-15	.	5	.	7	0.3	.
Cn1c(SCC(=O)Nc2nccs2)nnc1-c1ccccn1	-2	-1.4	-6	-1.1	.	3	2	4	-0.7	-1.6
Cc1cc(C(=O)CSc2n[nH]c(N)n2)c(C)n1-c1ccc2c(c1)OCO2	-10	-0.2	1	.	-3%	.	-5	.	.	7.7
COc1ccc(C)cc1NC(=O)CSc1nnc(-c2ccco2)n1Cc1ccco1	16	-0.6	2	.	-1%	.	10	.	.	-1.6

A portion of the library; count on the stated rates, not on these rows.
